NOMO-1 viab: STK33 inhibitor candidate reducing NOMO-1 cell viability | NOMO-1 AML viability, CellTiter-Glo luminescence, 72 h | inhibition, % (concentration not given with the values) | 37,000 tested, 7.5% active;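 active = most replicates above 80%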;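 note: wells of about 30 µL received 25 nL stock; 0% = median of vehicle wells and 100% = reference inhibitor level; the first replicate is given; inactives centre near 10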
* = called active by the depositor.

SMILES	NOMO-1 viab
Cc1cc(C)cc(OCC2CNC(=O)O2)c1 (centres undefined)	-15.4
CCn1cc(C(=O)O)c(=O)c2cc(F)c(N3CCNCC3)nc21	-14.7
COc1c(O)cc2c(c1O)[C@H]1O[C@H](CO)[C@@H](O)[C@H](O)[C@@H]1OC2=O	17.8
CCOC(=O)NNc1nncc2ccccc12	-3.4
CCCCCC(=O)O[C@]1(C(C)=O)CCC2C3CCC4=CC(=O)CC[C@]4(C)C3CC[C@@]21C (some centres undefined)	110.0*
COc1ccc(OCC(=O)Nc2cc(-c3nc4ccccc4s3)ccc2C)cc1	4.6
O=c1cc(-c2ccc(O)cc2)oc2cc(O[C@@H]3O[C@H](CO)[C@@H](O)[C@H](O)[C@H]3O[C@@H]3OC[C@](O)(CO)[C@H]3O)cc(O)c12	24.2

Rewritten field by field: part of the list above
Cc1cc(C)cc(OCC2CNC(=O)O2)c1 (centres undefined)
  NOMO-1 viab: -15.4

CCn1cc(C(=O)O)c(=O)c2cc(F)c(N3CCNCC3)nc21
  NOMO-1 viab: -14.7

COc1c(O)cc2c(c1O)[C@H]1O[C@H](CO)[C@@H](O)[C@H](O)[C@@H]1OC2=O
  NOMO-1 viab: 17.8

Only part of the results is shown; the hit share may differ from the screen's.
